Bioassay records as filed in PubChem.
Anthrax LT inh: qHTS Assay for Anthrax Lethal Toxin Internalization; Cells, anthrax lethal toxin internalization, FRET ratio (460/530); Potency, µM (titrated, usually from 40 µM), without a hit: top-dose activity change, negative = inhibition, usual class: inhibitors; actives 0.67% (n = 70,000); AID 912, 2007; active = well fitted falling ratio curve with the 530 nm signal flat; inconclusive = other ratio curves, or a change in one channel alone; inactive = flat curves in the ratio and both channels; the % refers to the ratio; note: % is set by controls: 0 for no effect and ±100 for the full control effect; nearly all actives have a fitted effect of over 50% in size; tested in ME-180 cells; beta-lactamase reporter
SmPrx2 inh: Schistosoma Mansoni Peroxiredoxins (Prx2); Schistosoma mansoni peroxiredoxin 2 (Prx2); S. mansoni Prx2 activity coupled to TGR/GSH (TGR is thioredoxin glutathione reductase), NADPH fluorescence loss, qHTS; some inactives read as strong as hits; Potency, µM; actives 0.07% (n = 65,000); AID 448, 2006; active means full or partial inhibition curve with a strong effect at the top dose; inconclusive means weaker partial or single-point curve; inactive means no accepted curve; note: series up to 57 µM; many of its hits are not listed in these tables
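Purified S. mansoni TGR and Prx2 in pH 7.4 phosphate buffer with EDTA and Tween-20 were preincubated with compounds for 15 min. Further NADPH/GSH was added, then a 2.5 mM H2O2 aliquot initiated turnover, followed kinetically by NADPH fluorescence.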
* = called active by the depositor; u = inconclusive; x = no result given; [ ] = another dose, or the depositor's remark. Potency is the fitted concentration of half-maximal effect. This is a subset (hit frequency here may not be typical).

SMILES | Anthrax LT inh | SmPrx2 inh
CCCn1c(-c2ccc(F)cc2)nc2c(NC(C)CCCN(CC)CC)nc(C)nc21 (stereo not given) | -3% | x
O=C(Nc1c(F)cc(F)cc1Br)c1cccnc1 | x | >57
COC(=O)CNC(=O)[C@@]1(C)C=C[C@@H](Cc2ccccc2)N1C(C)=O | u | x
O=C(CSCc1cccc(F)c1)N1CCN(c2ccccc2)CC1 | 5% | >57
O=C(Nc1ccc(F)cc1)NC1CCN(Cc2nnnn2Cc2ccco2)CC1 | -17% | >57
COC(=O)NC(/C(C(=O)OC)=C(\C)NCc1ccccc1)c1ccccc1 (stereo not given) | -15%[8 µM] | x
O=C(Cn1nnc(-c2ccccc2-n2cnnn2)n1)c1ccccc1 | 4% | >57
Cc1nn(C2CCCCC2)c(N)c1-c1ccccc1 | 1% | x
Cn1c(=O)c(-c2cccc(C#N)c2)nc2cnc(Oc3ccccc3)nc21 | u | >57
Cc1ccc(Cl)cc1-n1c(O)c(C=NCCCN2CCOCC2)c(=O)[nH]c1=O | 9% | >57
CCCNS(=O)(=O)c1ccc(CCC(=O)N2CCCCC2)cc1 | 3% | >57
COCCn1nnnc1C(c1ccc2ncccc2c1)N1CCc2ccccc21 (stereo not given) | u | >57
COCCn1c(=O)[nH]c2cc(C(=O)NCCN3CCN(c4ccc(OC)cc4)CC3)ccc2c1=O | -7% | >57
CCN1C(=O)CS/C1=N\c1nccs1 | 3% | x
N#CCSc1nnc(CNc2cccc(Cl)c2)o1 | 2% | >57

Profiles, quoted from the list. Values in the order: Anthrax LT inh, SmPrx2 inh
COCCn1c(=O)[nH]c2cc(C(=O)NCCN3CCN(c4ccc(OC)cc4)CC3)ccc2c1=O reads -7%, >57
Cn1c(=O)c(-c2cccc(C#N)c2)nc2cnc(Oc3ccccc3)nc21 reads u, >57
O=C(Cn1nnc(-c2ccccc2-n2cnnn2)n1)c1ccccc1 reads 4%, >57
COC(=O)NC(/C(C(=O)OC)=C(\C)NCc1ccccc1)c1ccccc1 (stereo not given) reads -15%[8 µM], x

Continued:
SMILES | Anthrax LT inh | SmPrx2 inh
O=c1cc(CN2CCc3ccccc32)nc2sccn12 | 15% | >57
O=C1N2CN(C(c3ccccc3)c3ccccc3)CN=C2SC1(CO)CO | -1% | >57
COc1ccc(CCN(Cc2cccs2)S(=O)(=O)c2ccc(-n3cnnn3)cc2)cc1OC | -17% | >57
O=C(CCN1CCOCC1)NCC(=O)Nc1ccc(Br)cc1C(=O)c1ccccc1 | 4% | >57
O=S(=O)(CCn1cccc1)CCn1cccc1 | -13% | >57
CCCC(=O)Nc1ccccc1NC(=O)C1CCCCC1 | u | >57
COc1cc(/C=N/n2cnnc2)ccc1OC(=O)N(C)C | -13% | >57
Fc1ccc(-c2nnc(-c3ccc(Cl)cc3)o2)cc1 | 9% | x
Cc1cccc(Cc2c(C)nc3c(C(=O)NCc4ccco4)cnn3c2C)c1 | u | >57
O=C(CCNS(=O)(=O)c1cccc2nonc12)NCc1cccs1 | -5% | >57
Cc1ccc(S(=O)(=O)N[C@@H](CCc2ccccc2)CC(=O)C(C)(C)C)cc1 | -7%[1.6 µM] | x
Cc1cc(C)n(-c2ccc3cccc(NS(C)(=O)=O)c3n2)n1 | 8% | >57
N#Cc1nc(N2CCCC2)nc(N2CCCC2)n1 | 14% | >57
C=CCn1c(Br)nc2c1c(=O)[nH]c(=O)n2C | 13% | >57
Cc1nn(Cc2ccccc2)c(Cl)c1C(=O)OC1CCOC1=O (stereo not given) | -1% | >57
CC(=O)c1sc(N2C(=O)c3oc4ccccc4c(=O)c3C2c2ccc(C)o2)nc1C (stereo not given) | 1% | >57
Cc1cc(C)cc(C(=O)OC2C[C@H]3CC[C@@H](C2)N3C)c1 (stereo not given in full) | u | >57
CC(C)c1ccc(/C(C(=O)O)=C(\O)C(=O)O)cc1 | 8%[8 µM] | >57
CCn1c(SCC(=O)NCC2CCCO2)nc2cc(S(=O)(=O)N3CCCCC3)ccc21 (stereo not given) | -6% | >57
CCOc1ccccc1-n1c(SCC(N)=O)nnc1-c1ccccc1 | -11% | >57
COc1cccc(CNC(=O)C2CCCN(S(=O)(=O)c3c(C)n[nH]c3C)C2)c1 (stereo not given) | -14% | >57
Cc1ccc2[nH]c(=O)c(C(c3nnnn3C3CCCC3)N(Cc3cccnc3)Cc3ccco3)cc2c1 (stereo not given) | u | >57
Cc1occc1-c1nnc(SCC(=O)Nc2ccccc2)n1Cc1ccccc1 | -7% | >57
CC(=O)N1CCN(c2ccc(OC[C@H]3CO[C@](Cn4ccnc4)(c4ccc(Cl)cc4Cl)O3)cc2)CC1 | u | >57
CC1(C)CC(NC(=O)c2coc(=O)c(Br)c2)CC(C)(C)N1 | -3% | >57
CCOC(=O)N1CCC(NC(=O)CCC(=O)N2CCOc3ccccc32)CC1 | -5% | >57
Cc1ccc(C)c(N2CCN(C(=O)C3CCCN(S(=O)(=O)c4cnc[nH]4)C3)CC2)c1 (stereo not given) | -5% | >57
CC(C)(C)NC(=O)CSc1nnc(-c2ccco2)n1Cc1ccco1 | 7% | >57
Cn1cnc([N+](=O)[O-])c1Sc1nc(N)nc2c1ncn2Cc1ccccc1 | -15%[8 µM] | >57
CCc1nnc(NC=C2C(=O)OC(C)(C)OC2=O)s1 | 2% | >57
CC(=O)OC[C@@H]1O[C@H](CCO/N=C(\C)CCN2CCCc3nc(C)c(C)cc32)C=C[C@@H]1OC(C)=O | -1%[8 µM] | x
CC(=O)/C(C(=N)N1CCN(c2cccc(Cl)c2)CC1)=C(\C)O | -14% | >57
COc1cc(C2NC(=O)N(C)C3=C2C(=O)CCC3)cc(OC)c1OC (stereo not given) | 8% | x
CC1=NN(C(=O)c2ccncc2)C(=O)[C@@H]1N=Nc1ccc2ccccc2c1 | -15%[8 µM] | >57
Cc1c(Cl)cccc1NC(=O)C[C@H]1Sc2ccccc2NC1=O | 3%[8 µM] | >57
O=S1(=O)NC(=NCc2ccco2)c2ccccc21 | -2% | >57
COc1ccc(S(=O)(=O)Cc2ccc(C(=O)N3CCN(c4ccccc4F)CC3)o2)cc1 | -22% | >57
COc1ccc(-c2nsc3c(N4CCN(C(=O)c5ccco5)CC4)ncnc23)cc1 | u | >57
O=C1CCCN1CC#CCN1CCCC1 | u | >57
CCOC(=O)N1CCN(C(=O)c2ccc(Cl)c(S(=O)(=O)N3CCOCC3)c2)CC1 | 2% | >57
CN1CCN(c2ccc(NC(=O)COc3ccc(Cl)cc3Cl)cc2)CC1 | u | >57
CN[C@H]1[C@@H](O[C@@H]2[C@H](O[C@@H]3[C@@H](O)[C@@H](O)[C@@H](N=C(N)N)[C@@H](O)[C@@H]3N=C(N)N)O[C@H](C)[C@@]2(O)C=O)O[C@@H](CO)[C@@H](O)[C@H]1O | 6%[3.58 µM] | >57
Nc1nnc(SCC(=O)N2CCN(c3ccccc3)CC2)n1-c1ccccc1 | 22% | >57
COc1ccc(-n2nc(C(=O)N3CCN(Cc4ccc5c(c4)OCO5)CC3)c3ccccc3c2=O)cc1 | -3% | >57
CCOC(=O)C(CC)Sc1nc(-c2ccc(OC)cc2)nc2c1c(=O)n(C)c(=O)n2C (stereo not given) | -3% | >57
COC(=O)[C@@H]1c2cc3c(c(O)c2[C@@H](O)C[C@]1(C)O)C(=O)c1c(O)cc2c(c1C3=O)O[C@H]1O[C@@]2(C)[C@@H](O)[C@H](N(C)C)[C@H]1O | -3%[8 µM] | >57
CC(C)c1ccccc1NC(=O)CCCC(=O)O | -4% | x
CC(=O)c1ccccn1 | 3% | x
Cc1ccc(C)c(N(CC(=O)NC2CCCC2)C(=O)CCCC(=O)Nc2ccccn2)c1 | 20% | >57
O=C(c1csc2ccccc12)N1CCN(c2ccccn2)CC1 | -5% | >57
O=C(NCN1C(=O)C2C3C=CC(C3)C2C1=O)Nc1nccs1 (stereo not given) | 5% | >57
Cn1nnc(NC(=O)C(c2ccccc2)c2ccccc2)n1 | u | >57
Cc1occc1-c1nnc(SCC(=O)Nc2ccc(F)cc2)n1Cc1ccccc1 | -9% | >57
Cc1nn(Cc2ccccc2)c(N)c1-c1ccccc1 | 6% | x
COc1ccc(CSc2nnc(N)s2)cc1F | u | >57
Cc1cccc(-c2nsc(SCC(=O)NCc3ccco3)n2)c1 | -5% | >57
CCC(=O)N(Cc1ccc(S(N)(=O)=O)cc1)C1CC(=O)N(c2ccc(OC)cc2)C1=O (stereo not given) | -24% | >57
O=C(Nc1ccccc1N1CCN(C(=O)c2ccc(Cl)cc2)CC1)c1cc2ccccc2o1 | x | >57
O=C(c1cc(C(F)(F)F)cc(C(F)(F)F)c1)N1CCC[C@@]2(CCN(c3ncccn3)C2)C1 | 6% | >57
CCOc1ccc2[nH]c(=O)c(CN(Cc3ccco3)C(CC)c3nnnn3Cc3ccccc3)cc2c1 (stereo not given) | u | >57

Pulled by structure from above (5):
SMILES | Anthrax LT inh | SmPrx2 inh
O=C(CCNS(=O)(=O)c1cccc2nonc12)NCc1cccs1 | -5% | >57
Fc1ccc(-c2nnc(-c3ccc(Cl)cc3)o2)cc1 | 9% | x
O=C(CCN1CCOCC1)NCC(=O)Nc1ccc(Br)cc1C(=O)c1ccccc1 | 4% | >57
O=C1N2CN(C(c3ccccc3)c3ccccc3)CN=C2SC1(CO)CO | -1% | >57
CC(=O)c1sc(N2C(=O)c3oc4ccccc4c(=O)c3C2c2ccc(C)o2)nc1C (stereo not given) | 1% | >57

(next part)
SMILES | Anthrax LT inh | SmPrx2 inh
CCCCCn1c(=O)c(C(=O)NCc2ccccn2)c(O)c2ccccc21 | u | >57
O=C(c1ccc(Br)cc1)N1CCN(S(=O)(=O)c2ccccc2)CC1 | 12% | >57
N#Cc1nc(-c2ccc(OCc3ccccc3)cc2)oc1N1CCC(C(N)=O)CC1 | u | >57
Cc1[nH]nc2c1C(c1cn[nH]c1-c1ccc(F)cc1)C(C#N)=C(N)O2 (stereo not given) | -7% | >57
CCOC(=O)N1CCN(CC(=O)n2c(C)c(C)c3ccccc32)CC1 | -16% | >57
COc1ccc(OC)c(-c2cc(C(=O)N3CCc4ccccc4C3)no2)c1 | u | >57
CN(C)CCNc1oc(COc2ccc(Cl)cc2)nc1C#N | -6% | >57
O=C1CC(c2cccc(Br)c2)C2=C(CCCC2=O)N1 (stereo not given) | u | >57
COc1cc(OC)cc(-n2nc(C(=O)NCCCN3CCOCC3)c3ccccc3c2=O)c1 | u | >57
O=P(c1ccccc1)(c1ccccc1)C(O)c1ccco1 (stereo not given) | 6% | >57
CCOc1ccccc1OCC(=O)Nc1ccc(S(=O)(=O)Nc2nc(C)cc(C)n2)cc1 | -14% | >57
O=C(c1ccncc1)N1CCC2(CCCN(Cc3ccncc3)C2)CC1 | 16% | >57
Cn1c(=O)oc2cc(S(=O)(=O)NC(Cc3ccccc3)C(=O)N3CCCCC3)ccc21 (stereo not given) | 9% | >57
O=C(Nc1nccs1)c1c(O)c2cccc3c2n(c1=O)CCC3 | 0% | >57
COc1cccc(Cn2c(C3CC3)nc3ccc(NC(=O)c4ccco4)cc3c2=O)c1 | 13µM* | >57
CCOCCCNC(=O)c1ccc(CS(=O)(=O)Cc2cccc(C)c2)o1 | 7% | >57
O=S(=O)(CCSc1nc2ccccc2o1)Cc1ccccc1 | -16% | x
CCOC(=O)c1sc(NC(=O)c2ccc(Cl)s2)cc1C | 23% | >57
CCCCn1c(=O)cc(N2CCOCC2)[nH]c1=O | 12% | >57
CCOC(=O)c1cc2cc(F)ccc2nc1C | u | >57
COc1ccc(-c2c3c(=O)n(C)c(=O)n(C)c3cn2-c2ccccc2)cc1 | x | >57
CCCCc1cc(=O)oc2cc(C)cc(OC(C)C(=O)O)c12 (stereo not given) | -8% | >57
Cc1ccccc1C(=O)N1CCC(C(=O)Nc2cccc(F)c2)CC1 | u | x
Cc1cc(N2CCCCC2)nc2ccc(Cc3ccc4nc(N5CCCCC5)cc(C)c4c3)cc12 | 4%[8 µM] | >11
O=c1[nH]c(=O)n(Cc2ccc(F)cc2)c(O)c1C=NCC1CCCO1 (stereo not given) | 9% | >57
CCOC(=O)C1CCCN(C(=O)CCCOc2cc(=O)n(C)c3ccccc23)C1 (stereo not given) | 4% | >57
CCOc1ccc(N2CC(=O)SC2=S)cc1 | -22% | x
CCOC(=O)N1CCN(c2ccc(S(=O)(=O)N(Cc3ccccc3)Cc3ccccc3)cn2)CC1 | u | >57
Cc1nc(NC2=NCN(Cc3ccco3)CN2)nc2ccccc12 | -11% | >57
COc1ccc(-c2cn3cc(C)ccc3n2)cc1OC | 13% | >57
CC(C)CN(C#N)c1nc(N2CCOCC2)nc(N2CCOCC2)n1 | -8% | >57
Cc1ccc(-c2cc(C(=O)Nc3cc(C)on3)c3ccccc3n2)c(C)c1 | u | >57
CCn1c(Cc2ccc(OC)cc2)nnc1SCC(=O)Nc1cccc(C(=O)OC)c1 | 19% | >57
O=C(NS(=O)(=O)c1ccc2c(c1)OCCO2)c1ccccc1 | 4% | >57
CCOC(=O)C1CCN(c2c(Nc3ccc4c(c3)OCCO4)c(=O)c2=O)CC1 | u | >57
O=C(CSc1nc(Nc2ccccc2)nc(N2CCOCC2)n1)Nc1ccccc1Cl | -14% | >57
Cc1cc(=O)oc2ccc(OCC(=O)N(Cc3ccc(F)cc3)Cc3ccco3)cc12 | x | >57
